High-throughput results (PubChem BioAssay)
MLL AF4-AF9 inh = MLL-AF4/AF9 protein interaction inhibition. P42568. inhibition, % at 10 µM. 0.47% of 350,000 active. AlphaScreen, biotin-AF4 peptide binding to FLAG-AF9;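 active means every replicate reaching a set inhibition limit, whatever the replicate mean, cut at about 25% in these data; inconclusive means mean inhibition reaches that limit but some replicates miss it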;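 further: 0% = plate neutral control median and 100% = total signal loss; the record names both 10 and 1 µM as test concentration; the first replicate is given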
E coli growth = inhibitors of Escherichia coli growth; OD600, 23 h; hits give low values; OD600 absorbance (test concentration not listed); 0.21% of 330,000 active; AID 1053175;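 active means OD600 absorbance below the run mean of sample wells minus 3.6 SD, in any replicate, cut at about 0.56 in these data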;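 further: stock transfer was 300 nL into about 60 µL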
Vif A3G = HIV-1 Vif–A3G interaction blockers – biochemical, TR-FRET, GST-Vif 1-94, biotin-A3G peptide, dose response retest, primary screen (AID 1117319) | TR-FRET GST-Vif / biotin-A3G peptide binding; higher % means a stronger effect; test concentration not given here; strong numbers were not always called active | one-dose inhibition, %; IC50 in µM for titrated hits | 0.57% of 260,000 active;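 active means above the screen mean plus three standard deviations and confirmed in dose response; inconclusive means results disagree or hit not tested in dose response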;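 further: Vif residues 1-94 fused to GST binding biotinylated APOBEC3G peptide 110-148; 0% = full assay without inhibitor and 100% = GST in place of GST-Vif; retest series ran down from 100 µM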
rRNA inh HTS = selective bacterial rRNA inhibition in E. coli; E. coli WT GFP vs humanized-ribosome RFP mutants, fluorescence, 24 h; hits give low values; DMSO median 0, no signal -100; GFP signal change (wild-type ribosome), % (test concentration not listed); 1.6% of 350,000 active; AID 720706;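 active means significant combined selectivity score with lowered wild-type GFP, culture density cut under 30%, mutant RFP and density less affected; inactive means any of these conditions unmet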; further: one replicate is shown; some compounds called inactive have numbers as strong as hits
ALR inh = human ALR oxidase inhibition via reduced H2O2; inhibition, % (concentration not given with the values); purified ALR, DTT oxidation, H2O2 HRP-luminol luminescence; 3.8% of 290,000 active;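 active means mean and each replicate at 75% or more; inconclusive means only one of the two met; inactive means neither met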;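 further: stock transfer was 7.5 nL into about 7.5 µL; 0% = neutral wells and 100% = wells with inactivated enzyme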
Target sequence (P55789 whole entry, looked up): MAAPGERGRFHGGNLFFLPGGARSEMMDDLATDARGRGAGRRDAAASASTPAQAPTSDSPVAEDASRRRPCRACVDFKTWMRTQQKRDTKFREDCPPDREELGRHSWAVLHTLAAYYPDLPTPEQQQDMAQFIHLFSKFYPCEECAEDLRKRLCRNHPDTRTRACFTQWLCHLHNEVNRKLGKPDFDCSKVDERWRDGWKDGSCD
HNF4A DNA FP = change in binding of human HNF4 alpha to DNA; P41235; HNF4a-FITC DNA binding, fluorescence polarization, 1 h; activity change, % at 10 µM; 0.3% of 360,000 active; AID 1224865; in the data active means activity change above about 30%, passing the limit was not always enough;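 further: controls were the assay level and a saturating level of protein; the project sought stronger binding though the title names inhibitors; some compounds called inactive have numbers as strong as hits; positive values seem to mean higher polarization but the record does not say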
Target sequence (P41235 whole entry, looked up): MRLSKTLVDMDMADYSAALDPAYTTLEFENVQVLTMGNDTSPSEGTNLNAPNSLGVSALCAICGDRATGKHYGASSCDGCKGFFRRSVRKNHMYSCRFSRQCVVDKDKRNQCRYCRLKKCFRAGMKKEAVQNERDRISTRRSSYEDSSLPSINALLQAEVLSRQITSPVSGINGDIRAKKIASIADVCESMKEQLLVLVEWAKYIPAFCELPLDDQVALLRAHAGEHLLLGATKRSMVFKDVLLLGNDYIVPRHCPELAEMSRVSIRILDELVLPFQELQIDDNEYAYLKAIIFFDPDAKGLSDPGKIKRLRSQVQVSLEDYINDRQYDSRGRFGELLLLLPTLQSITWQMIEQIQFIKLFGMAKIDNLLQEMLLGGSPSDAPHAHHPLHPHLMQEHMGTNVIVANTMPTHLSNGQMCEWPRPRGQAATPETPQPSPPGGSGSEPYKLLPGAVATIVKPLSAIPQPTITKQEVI
FGF22 binding = shifts melting point of recombinant human FGF22; AID 651658; recombinant FGF22 thermal shift, SYPRO orange fluorescence; percent of sucrose octasulfate shift, DMSO zero; Q9HCT0; 1.5% of 340,000 active; calls only at 9.99 µM;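 active means melting point raised past a set limit in the mean and every replicate; inconclusive means no clear call; three in four hits are not shown here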
Target sequence (Q9HCT0 whole entry, looked up): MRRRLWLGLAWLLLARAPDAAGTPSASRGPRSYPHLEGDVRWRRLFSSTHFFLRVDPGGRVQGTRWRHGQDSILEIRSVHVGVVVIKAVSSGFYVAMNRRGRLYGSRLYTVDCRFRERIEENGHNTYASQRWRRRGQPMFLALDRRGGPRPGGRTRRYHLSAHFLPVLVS
rRNA inh HTS OD600 = also measured in rRNA inh HTS; calls as there; OD600 change, %; measured here: OD600 growth;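 optical density of the mix in the first replicate; 0 = DMSO median and -100 = no signal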
rRNA inh HTS RFP = further read-out of rRNA inh HTS, marked with its call; RFP signal change, %; measured here: RFP humanized mutant strains;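 first replicate; 0 = DMSO median and -100 = no signal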
Starred values were filed as active, the others as inactive; i = inactive; u = inconclusive; x = not tested or not shown. This is a subset; the hit share may differ from the screen's.

No.	MLL AF4-AF9 inh	E coli growth	Vif A3G	rRNA inh HTS	rRNA inh HTS OD600	rRNA inh HTS RFP	ALR inh	HNF4A DNA FP	FGF22 binding	SMILES
1	0.4	x	x	-5	4	4.4	x	x	i	C[C@@H]1CN([C@H](C)CO)C(=O)Cc2cc(NC(=O)Nc3cccc4ccccc34)ccc2O[C@@H]1CN(C)Cc1ccc2c(c1)OCO2
2	x	0.68	-1%	x	x	x	-6	-2.5	x	CCOc1ccc(C(=O)NCc2cccnc2)cc1
3	-2.4	0.63	x	-4	1	-3.8	0	0.8	i	CCCCCCn1cc(C(=O)O)c(=O)c2cc(F)c(N3CCCCC3)cc21
4	-2.4	x	11%	3	12	0.2	0	3.5	i	COc1cccc(C(=O)NC2C(=O)N3C(C(=O)O)=C(COC(C)=O)CSC23)c1 (centres undefined)
5	-0.1	x	x	0	3	-0.5	x	x	i	C[C@H]1CN([C@@H](C)CO)C(=O)Cc2cc(NC(=O)Nc3cccc4ccccc34)ccc2O[C@H]1CN(C)Cc1ccc(Cl)c(Cl)c1
6	x	0.78	-21%	x	x	x	-5	-0.3	x	O=C(NCC1CCCO1)c1c(O)c2cccc3c2n(c1=O)CCC3 (centres undefined)
7	x	0.7	-2%	x	x	x	-3	2.4	x	Cc1cc(C)n(-c2nc(-c3ccccc3)cs2)n1
8	2.0	0.66	0%	8	-3	-1.5	x	3.1	i	O=C1c2ccccc2C(=O)N1C1CCCCC1
9	x	x	-3%	x	x	x	-12	-2.0	x	CCOc1ccc2ccccc2c1/C=N/n1cncn1
10	-6.6	0.69	2%	x	x	x	-18	0.8	x	CCOC(=O)c1c(C)oc2cc(Br)c(OC(C)C(=O)OCC)cc12 (centres undefined)
11	-2.3	0.67	-2%	-25	-29	0.3	-2	-1.9	i	COc1ccc(NC(=O)c2cc(-c3ccc(C)c(C)c3O)n[nH]2)cc1Cl
12	2.7	x	x	4	14	1.9	x	0.7	i	CC(=O)Nc1cccc(-c2ccnc3c2CC(C(=O)NC(C)C)O3)c1 (centres undefined)
13	-2.8	0.69	x	4	4	-0.6	-6	0.6	i	CCOc1ccc(S(=O)(=O)NCCC(=O)NC2CCN(Cc3ccccc3)CC2)cc1
14	-0.5	0.65	3%	21	9	-0.2	-3	1.2	i	COCCCNC(=S)N1CCC(NC(=O)c2ccco2)CC1
15	40*	0.67	-5%	-10	10	-4.1	-7	0.3	i	Cn1nc(C(C)(C)C)cc1C(=O)NNC(=O)c1cccc(Cl)c1
16	-3.1	0.66	x	1	-6	3.2	-5	-4.8	i	CCC(C(=O)NCc1ccco1)N(C(=O)CNS(=O)(=O)c1ccccc1)c1ccc(F)cc1 (centres undefined)
17	-2.1	0.68	x	-2	2	-0.7	-2	2.0	i	Cc1c(C)c2ccc(OCC(=O)Nc3nccs3)cc2oc1=O
18	-4.3	0.67	u	14	12	2.9	5	2.1	i	CC(=O)Nc1ccc(OC(=O)N2CCCC2)cc1
19	-12	x	5%	8	14	0.4	-7	-1.6	i	Cc1cc(C(=O)N/N=C/c2ccc([N+](=O)[O-])cc2)c2ccccc2n1
20	8.6	x	8%	-9	-12	4.9	x	3.1	i	Cc1cc2oc(C(=O)NCC(c3ccco3)N3CCCC3)c(C)c2cc1C (centres undefined)

Continuation.
No.	MLL AF4-AF9 inh	E coli growth	Vif A3G	rRNA inh HTS	rRNA inh HTS OD600	rRNA inh HTS RFP	ALR inh	HNF4A DNA FP	FGF22 binding	SMILES
21	0.2	x	x	1	4	-0.6	x	x	i	CCCNC(=O)[C@H]1[C@H](CO)[C@H]2Cn3c(ccc(-c4ccncc4)c3=O)[C@@H]1N2C(=O)CC1CC1
22	x	0.69	-1%	x	x	x	-5	-0.8	x	O=C(NCc1ccccc1)C1CCN(S(=O)(=O)N2CCOCC2)CC1
23	-1.8	x	x	14	16	1.4	x	-2.4	i	CC1(c2nnnn2Cc2ccccc2)CCC(=O)N1Cc1ccco1 (centres undefined)
24	1.9	0.68	x	-5	-4	-0.7	2	2.0	i	O=C(CSc1nc2ccccc2c(=O)[nH]1)N1CCN(c2ccccc2F)CC1
25	-1.9	x	x	-2	11	0.6	x	x	i	O=C([C@@H]1[C@@H](CO)[C@@H]2Cn3c(ccc(-c4ccccc4F)c3=O)[C@H]1N2C(=O)C1CC1)N1CCCCC1
26	7.3	0.69	x	-4	-3	8.7	61	2.0	i	CC(C)=C1C(=O)NN(c2ccc(C)c(Cl)c2)C1=O
27	x	0.67	3%	x	x	x	53	-2.7	x	CCOC(=O)COc1cc(Br)c(C2NC(=O)NC(C)=C2C(C)=O)cc1OCC (centres undefined)
28	1.4	0.7	-9%	-2	-8	-0.2	-8	-0.5	i	O=C(NCC1CCCO1)c1cn(-c2ccccc2)nc1-c1ccc(F)cc1 (centres undefined)
29	1.6	0.67	1%	-1	-5	12	-2	-2.9	i	COc1ccc(CN(C)C(C)C(=O)Nc2ccc(S(=O)(=O)N3CCCCC3)cc2)c(OC)c1 (centres undefined)
30	-0.1	0.71	x	12	13	0.7	3	-1.3	i	CC(=O)Nc1ccc(S(=O)(=O)N2CCN=C2c2ccccc2)cc1
31	x	0.71	-13%	x	x	x	x	0.6	x	COc1ccccc1Cn1c(=O)c2ccccc2n2c(Sc3ncnc4sccc34)nnc12
32	x	0.73	-2%	x	x	x	-11	1.6	x	CCCn1c(=O)c(C(=O)Nc2ccccc2C(=O)OC)c(O)c2ccccc21
33	4.0	x	x	-3	-16	-0.6	x	x	i	COc1ccc(NC(=O)Nc2ccc3c(c2)C(=O)N([C@@H](C)CO)C[C@@H](C)[C@@H](CN(C)C(=O)C2CCCCC2)OCCCC[C@@H](C)O3)cc1
34	x	0.67	x	x	x	x	-8	-0.7	x	CC1(C)CCCC(C)(C)N1CC(O)COCCOc1ccc(Br)cc1 (centres undefined)
35	x	0.69	u	x	x	x	-5	-0.8	x	O=C(Cn1ccc2ccccc2c1=O)NCCC(=O)N1CCN(C2CCCCC2)CC1
36	1.3	0.69	x	1	9	-1.2	-2	3.8	i	CCOc1nc2cnccc2n(CC(=O)Nc2c(C)cccc2CC)c1=O
37	x	0.7	-1%	x	x	x	-17	1.8	x	Cc1cc(C(F)(F)F)c(C#N)c(SCC(=O)NC(C)(C)C)n1
38	-0.7	x	x	-2	1	-3.2	x	x	i	O=C(CC1CC1)Nc1ccc2c(c1)[C@H]1C[C@H](CC(=O)N3CCCCC3)O[C@H](CO)[C@H]1O2
39	-4.4	x	x	0	2	-0.6	x	x	i	C[C@@H]1CN([C@H](C)CO)C(=O)c2cc(N(C)C)ccc2O[C@H]1CN(C)S(C)(=O)=O
40	x	0.7	3%	x	x	x	2	-2.7	x	CCOC(=O)c1ccccc1NC(=O)C1COc2ccccc2O1 (centres undefined)

The closing 3 compounds of the part above are carried over, then new ones follow:
No.	MLL AF4-AF9 inh	E coli growth	Vif A3G	rRNA inh HTS	rRNA inh HTS OD600	rRNA inh HTS RFP	ALR inh	HNF4A DNA FP	FGF22 binding	SMILES
38	-0.7	x	x	-2	1	-3.2	x	x	i	O=C(CC1CC1)Nc1ccc2c(c1)[C@H]1C[C@H](CC(=O)N3CCCCC3)O[C@H](CO)[C@H]1O2
39	-4.4	x	x	0	2	-0.6	x	x	i	C[C@@H]1CN([C@H](C)CO)C(=O)c2cc(N(C)C)ccc2O[C@H]1CN(C)S(C)(=O)=O
40	x	0.7	3%	x	x	x	2	-2.7	x	CCOC(=O)c1ccccc1NC(=O)C1COc2ccccc2O1 (centres undefined)
41	-1.0	0.65	-7%	-6	-13	-0.9	3	1.6	i	COc1cc(NC(=O)NC2Cc3ccccc3C2)cc(OC)c1
42	x	0.68	8%	x	x	x	1	-0.7	x	Brc1ccc(-c2nn3c(-c4ccccn4)nnc3s2)o1
43	-3.0	x	x	4	-31	-1.4	x	x	i	CCS(=O)(=O)N1CC2(CN(Cc3ccccc3)[C@H](CO)c3c2c2ccc(OC)cc2n3C)C1
44	1.3	x	x	6	12	-1.8	x	x	i	O=C(CN1CCOCC1)N[C@@H]1CC[C@H](CCn2cc(C3CC3)nn2)O[C@H]1CO
45	-6.2	0.69	x	-10	-10	-0.3	-54	2.3	i	COc1ccccc1CN1CC(C(=O)NCc2cc(F)cc(C(F)(F)F)c2)CCC1=O (centres undefined)
46	9.8	x	2%	-28*	-9.4*	-10*	-2	-4.2	i	COC(=O)N/N=C/c1cn(Cc2ccc(Cl)cc2Cl)c2ccccc12
47	-2.0	0.67	x	x	x	x	-8	-0.1	i	O=C(NC1CC2CCCC(C1)N2C(=S)Nc1ccc(Cl)cc1)C1CC1 (centres undefined)
48	x	0.71	6%	x	x	x	36	3.5	x	O=C1CNC(=S)N1Cc1ccc(F)cc1
49	-0.1	0.67	16%	14	-25	27	x	87*	i	CN(/C=C/C(=C\C=[N+](C)c1ccccc1)OCCCS(=O)(=O)[O-])c1ccccc1
50	x	0.7	22%	x	x	x	-1	-1.8	x	O=C(NC1CCC(NC(=O)C(F)(F)C(F)F)CC1)C(F)(F)C(F)F (centres undefined)
51	5.1	x	x	0	-2	2.5	x	30	i	O=C(NC1CCCCC1)C(c1ccnc2ccccc12)n1c(=O)c(-c2ccco2)nc2ccccc21 (centres undefined)
52	-4.4	x	x	3	13	12	x	x	i	Cc1nc([N+](=O)[O-])cn1CC(Cl)Cn1cc([N+](=O)[O-])nc1C
53	-4.4	x	x	4	2	2.7	x	x	i	C[C@@H]1CN([C@@H](C)CO)C(=O)c2cc(NS(=O)(=O)c3ccccc3)ccc2O[C@H]1CN(C)C
54	-0.6	x	x	2	2	-1.4	x	x	i	CC(C)NC(=O)Nc1ccc2c(c1)CC(=O)N([C@@H](C)CO)C[C@H](C)[C@@H](CN(C)Cc1ccncc1)O2
55	-4.4	0.7	-8%	3	1	1.8	1	-0.3	i	CC1(C)C(=O)Nc2ccccc2N1C(=O)COC(=O)CNS(=O)(=O)c1ccc(F)c(F)c1F
56	x	x	4%	x	x	x	8	-1.0	x	C(=C\c1ccccc1)/C=N/Nc1nc(N2CCOCC2)nc(N2CCOCC2)n1
57	-1.1	0.63	-5%	-3	0	2.1	8	-4.0	i	CCCCN1C(=O)C(=O)N(CC(=O)Nc2sc(CC)cc2C(=O)OCC)C1=O
58	-2.4	0.66	-4%	-15	-3	-5.2	x	0.2	i	CC1CCN(CC(=O)Nc2ccccc2-c2ccccc2)CC1
59	-0.1	x	x	10	5	-0.2	x	4.1	i	CC1(C(=O)NS(=O)(=O)Cc2cccc(Cl)c2)CCN1C(=O)Cc1cccs1 (centres undefined)
60	x	0.69	u	x	x	x	5	-1.7	x	[O-][n+]1onc2c1CCC1N(O)C(c3ccccc3)CC21O (centres undefined)
61	-1.7	x	x	2	-1	-2.9	x	x	i	COc1ccc(S(=O)(=O)N(C)C[C@H]2Oc3ccc(NS(=O)(=O)c4cn(C)cn4)cc3CC(=O)N([C@H](C)CO)C[C@H]2C)cc1
62	-3.8	0.69	x	7	8	1.3	-6	-0.5	i	O=C(NCc1ccc(F)cc1)N1CCc2ccccc2C1
